TRPML1 ag – qHTS for Agonists of the Human Mucolipin Transient Receptor Potential 1 (TRPML1); actives 0.12% (n = 410,000); TRPML1-expressing cells, Ca2+ dye fluorescence, FDSS; host cell line not named in the record; reference of the full effect not given here; activation, % (concentration not given with the values); AID 624414, 2012; Mucolipin-1 (Homo sapiens), Q9GZU1; in the data active = activation above about 50%; inconclusive = about 30% to 50%; inactive = below about 30%; note: 0% is about no effect; the text of the record puts the active cut at 80%
Target sequence (Q9GZU1 whole entry, looked up): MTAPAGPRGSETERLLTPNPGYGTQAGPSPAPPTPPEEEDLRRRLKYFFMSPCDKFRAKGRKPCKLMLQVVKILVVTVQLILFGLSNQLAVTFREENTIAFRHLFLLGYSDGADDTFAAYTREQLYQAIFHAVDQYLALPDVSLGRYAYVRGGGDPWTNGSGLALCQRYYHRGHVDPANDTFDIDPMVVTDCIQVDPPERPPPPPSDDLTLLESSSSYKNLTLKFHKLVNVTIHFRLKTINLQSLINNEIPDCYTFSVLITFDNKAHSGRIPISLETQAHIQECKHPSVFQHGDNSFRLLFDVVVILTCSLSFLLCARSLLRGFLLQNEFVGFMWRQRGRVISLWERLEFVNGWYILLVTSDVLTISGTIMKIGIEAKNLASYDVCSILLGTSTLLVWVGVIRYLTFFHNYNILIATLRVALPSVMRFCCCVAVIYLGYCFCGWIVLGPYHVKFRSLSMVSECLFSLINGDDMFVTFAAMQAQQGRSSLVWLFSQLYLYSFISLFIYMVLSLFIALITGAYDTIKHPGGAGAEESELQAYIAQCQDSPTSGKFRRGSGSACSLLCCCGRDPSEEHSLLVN
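Cells: TRPML1-DL, 1X Tet inducer, ~16 h at 37 degrees C/5% CO2. Dye: ABD Ca8 no-wash + quencher, 45-90 min RT. Read: 10 s baseline, compound add, 110 s agonist phase; 54-4 EC80 (4uM final), 110 s antagonist phase.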
gsp antag – qHTS for Antagonists of gsp, the Etiologic Mutation Responsible for Fibrous Dysplasia/McCune-Albright Syndrome: qHTS | gsp-mutant cells, cAMP HTRF, 30 min; control for the full effect not named in the record | Potency, µM (titrated, usually from 76.9 µM), for inactives: at the highest dose activity change, negative = inhibition, hits mostly inhibitors | actives 0.4% (n = 340,000) | AID 624288, 2012; active = falling curve of any shape with a large fitted effect; inconclusive = falling curve, mostly with a smaller effect; inactive = flat or rising curve; cell line not stated here;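 note: intracellular cAMP measured with PDE inhibitor Ro 20-1724 present during compound exposure; potency is the fitted concentration of half-maximal effect; % is set by controls: 0 for no effect and ±100 for the full control effect; nearly all actives have a fitted effect of over 65% in size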
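Cells in G418 medium, seeded 16-24 h, 37C; buffer exchange to DPBS + 1 mM CaCl2, 0.5 mM MgCl2, 0.05% BSA; cpds in DMSO + […] (300 uM stock), 30 min 37C; HTRF cAMP detection.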
Menin MLL FP FL – qHTS Assay for Inhibitors Targeting the Menin-MLL Interaction in MLL Related Leukemias: Competition With Fluorescein Labeled MLL-derived Peptide | FP activity change, % at 61.4 µM | 290,000 tested, under 10 active | AID 1766, 2009 | Fluorescence polarization, fluorescein-MLL peptide displacement from menin; inconclusive = falling polarisation curve, or a change in total fluorescence; inactive = total fluorescence flat and polarisation flat or rising; no compound was filed as active; the % refers to the polarisation; negative = inhibition;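 note: % of control where 0% means no effect; inhibitors lower the polarisation; unlabelled MLL peptide was the positive control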
TRPML1 inh – qHTS for Inhibitors of the Human Mucolipin Transient Receptor Potential 1 (TRPML1) | Mucolipin-1 (Homo sapiens), Q9GZU1 | AID 624415, 2012 | TRPML1-inducible cells, Ca2+ dye fluorescence, FDSS; stronger effect = lower value; inhibition of EC80 agonist-evoked calcium signal | actives 0.02% (n = 390,000) | activity change, negative = inhibition, % (no concentration beside the values); in the data active means activity change below about -50%; inconclusive means about -30% to -50%; inactive means above about -30%;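 note: stimulus is agonist 54-4 at its EC80 concentration; % is set by controls: 0 for no effect and ±100 for the full control effect; compound concentration not given in the record; the text of the record puts the active cut at -80%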
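Tet-induced TRPML1-DL cells loaded with Ca8 no-wash calcium dye were read kinetically on FDSS. Compound addition was followed by EC80 agonist 54-4 (4 uM final); inhibition was read over 110 s.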
ClpP mod – qHTS Assay for Activators of ClpP; Potency, µM (top dose mostly 57.5 µM), for the others: at the top dose activity change, negative = active; purified B. subtilis ClpP, FRET peptide cleavage, 20 min; AID 651965, 2013; actives 1.9% (n = 340,000); ATP-dependent Clp protease proteolytic subunit (Bacillus subtilis (strain 168)), P80244; active = well fitted falling curve with a large enough effect; inconclusive = small, poorly fitted or top-dose-only effect; inactive = no such curve, though single readings can be large or run the other way; note: potency is the fitted concentration of half-maximal effect; the source files actives as falling curves though it sought activators and does not explain the sign; nearly all actives have a fitted effect of over 65% in size; many hits overshoot -100%
Target sequence (P80244 whole entry, looked up): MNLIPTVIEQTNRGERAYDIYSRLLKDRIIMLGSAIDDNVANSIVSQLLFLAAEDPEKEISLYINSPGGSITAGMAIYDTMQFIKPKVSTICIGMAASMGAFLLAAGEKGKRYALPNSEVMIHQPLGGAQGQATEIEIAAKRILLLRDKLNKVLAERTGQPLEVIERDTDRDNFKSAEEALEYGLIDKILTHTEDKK
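FRET quenching reversal measured ClpP activation: 10 microg/mL B. subtilis ClpP at pH 8 with the FRET-FV decapeptide, read at 430 nm after 320 nm excitation. The 20-min minus 0-min signal was scaled between DMSO/no-enzyme wells and ADEP (5.8 microM final).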
gsp ag – qHTS for Agonist of gsp, the Etiologic Mutation Responsible for Fibrous Dysplasia/McCune-Albright Syndrome: qHTS; gsp mutant cells, cAMP HTRF, 30 min; control for the full effect not named in the record; actives 0.13% (n = 340,000); Potency, µM (highest dose often 76.9 µM), without a hit: at the highest dose activation (cAMP increase), hits mostly activators; AID 624287, 2012; active = well fitted activation curve with a large enough effect; inconclusive = small, poorly fitted or top-dose-only effect, or another doubt; inactive = no such curve, though single readings can be large or run the other way; cell line not stated here;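 note: phosphodiesterase inhibitor Ro 20-1724 added with compounds to block cAMP breakdown; potency is the fitted concentration of half-maximal effect; nearly all actives have a fitted effect of over 60% in size; about a fifth of the inactives were tested at one dose only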
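Cells in DMEM/10% FBS with G418 were pretreated with compounds in DMSO plus […] (300 uM stock) for 30 min at 37C. cAMP was measured by HTRF (cAMP-d2 plus anti-cAMP antibody-K) after 30 min at room temperature.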
An asterisk follows results filed as active; [ ] = another dose, or the depositor's remark.

What do the screens show for `CCOC(=O)Cc1csc(NC(=O)CSc2nnnn2-c2ccc(C)c(C)c2)n1`?
TRPML1 ag: -0.3; gsp antag: -26%; Menin MLL FP FL: 0.4; TRPML1 inh: -6; ClpP mod: 1.5%; gsp ag: -22%

How did CC(=O)c1ccc(S(=O)(=O)N(C)CCCC(=O)NCc2ccc3c(c2)OCO3)cc1 do in these assays?
TRPML1 ag: -0.1; gsp antag: 3%; TRPML1 inh: 8; ClpP mod: 0.9%; gsp ag: 10%

How did Cc1cc2c(cc1S(=O)(=O)Nc1ccc(C(C)C)cc1)OCCN2C do in these assays?
TRPML1 ag: 1.0; TRPML1 inh: -12; ClpP mod: -7.3%

What do the screens show for `Cc1cccc(NC(=O)c2oc3ccc(S(=O)(=O)N4CCCCC4)cc3c2C)c1C`?
TRPML1 ag: 0.2; TRPML1 inh: 49; ClpP mod: 42%

How did O=C(O)c1cccc(NS(=O)(=O)c2ccc3c(c2)OCCCO3)c1 do in these assays?
TRPML1 ag: 0.1; gsp antag: 7%; Menin MLL FP FL: -2.0; TRPML1 inh: 0; gsp ag: -12%

How did COc1cccc(CC(=O)Nc2cc(S(=O)(=O)N3CCOCC3)ccc2N2CCOCC2)c1 do in these assays?
TRPML1 ag: 0.4; gsp antag: -5%; Menin MLL FP FL: 4.1; TRPML1 inh: 26; ClpP mod: 0.2%; gsp ag: -19%[15.4 µM]

How did COCCNC(=O)[C@H]1N2C(=O)c3c(ccc(OC)c3OC)C2SC1(C)C (some centres undefined) do in these assays?
TRPML1 ag: 0.0; gsp antag: 8%; Menin MLL FP FL: -5.0; TRPML1 inh: -2; ClpP mod: -14%; gsp ag: 23%

What do the screens show for `O=C(CCCN1C(=O)c2cccc3cccc(c23)C1=O)N1CCN(c2ccccc2O)CC1`?
TRPML1 ag: 1.1; gsp antag: 10%; Menin MLL FP FL: 1.1; TRPML1 inh: 9; ClpP mod: -29%; gsp ag: 18%

How did O=C(O)Cn1ccnc1[N+](=O)[O-] do in these assays?
TRPML1 ag: -0.2; TRPML1 inh: 59; ClpP mod: 1.5%; gsp ag: 13%

Results for CN1C(=O)C2ON(c3ccccc3)C(c3cccs3)C2C1=O (centres undefined) ?
TRPML1 ag: 0.2; gsp antag: 5%; Menin MLL FP FL: 4.3; TRPML1 inh: 2; ClpP mod: -0.3%; gsp ag: -22%

How did COc1ccccc1CNC(=O)CN(C)S(=O)(=O)c1ccc2c(c1)c(=O)n(C)c(=O)n2C do in these assays?
TRPML1 ag: 0.0; gsp antag: -2%; TRPML1 inh: -1; ClpP mod: -2.8%; gsp ag: 26%

How did COc1ccc(OC)c([C@@H]2OCCC=C[C@H]2C)c1 do in these assays?
TRPML1 ag: 1.8; gsp antag: -13%; Menin MLL FP FL: -1.4; TRPML1 inh: -5; ClpP mod: 0.0%

What do the screens show for `c1ccc(COc2cccc(-c3cc4nc(NCCOc5ccccc5)ccn4n3)c2)cc1`?
TRPML1 ag: 0.0; TRPML1 inh: 31; ClpP mod: 4.2%

What do the screens show for `O=C1N=C(N2CCCC2)CN1c1ccccc1`?
TRPML1 ag: -0.4; gsp antag: 3%; Menin MLL FP FL: 4.6; TRPML1 inh: -4; ClpP mod: -14%; gsp ag: 19%

What do the screens show for `CC(/C=C/c1ccccc1)=N/NC(=O)Cn1nnc(N)n1`?
TRPML1 ag: 0.8; gsp antag: 6%; Menin MLL FP FL: -6.5; TRPML1 inh: -6; gsp ag: -3%[15.4 µM]

What do the screens show for `Cc1ccc(C)c(Cn2c(=O)n(CCC(=O)NCc3ccc4c(c3)OCO4)c(=O)c3sccc32)c1`?
TRPML1 ag: 0.1; TRPML1 inh: -3; ClpP mod: 0.0%

What do the screens show for `Cc1nc2sc(C(c3ccco3)N3CCN(c4cccc(Cl)c4)CC3)c(O)n2n1` (centres undefined)?
TRPML1 ag: 0.4; gsp antag: -2%; Menin MLL FP FL: 1.6; TRPML1 inh: -3; ClpP mod: -0.3%; gsp ag: 15%

How did COc1ccc(C)cc1NC(=O)N1CCN(c2cc(-c3noc(C)n3)ccc2C)CC1 do in these assays?
TRPML1 ag: 2.3; TRPML1 inh: 11; ClpP mod: -4.7%

What do the screens show for `Cc1ccc(NC(=O)c2cc(S(=O)(=O)N3CCCCC3)cs2)cc1`?
TRPML1 ag: 1.6; gsp antag: 4%; Menin MLL FP FL: -0.7; TRPML1 inh: 1; ClpP mod: -3.0%; gsp ag: 6%

Results for CCN(CC)c1ncnc2c1cnn2C ?
TRPML1 ag: 0.3; gsp antag: 13%; Menin MLL FP FL: -1.1; TRPML1 inh: 7; ClpP mod: -1.4%; gsp ag: inconclusive

How did c1cc(Nc2cccc3nccnc23)c2nccnc2c1 do in these assays?
TRPML1 ag: 0.5; gsp antag: 0%; Menin MLL FP FL: inconclusive; TRPML1 inh: 37; gsp ag: 24%

What do the screens show for `COc1cccc(NC(=O)Nc2cc(C(=O)O)ccc2C)c1`?
TRPML1 ag: -0.3; gsp antag: 11%; Menin MLL FP FL: -3.2; TRPML1 inh: 5; gsp ag: -25%

What do the screens show for `COc1ccc(C(=O)c2c3ccc([N+](=O)[O-])cc3[n+]([O-])n2CCCN)cc1`?
TRPML1 ag: 0.2; gsp antag: 1%; TRPML1 inh: 9; ClpP mod: 1.4%

What do the screens show for `Cc1ccc(CNC(=O)c2cc3c(=O)n(C)c4ccccc4c3n2C)o1`?
TRPML1 ag: 3.9; gsp antag: 11%; Menin MLL FP FL: -0.9; TRPML1 inh: 1; ClpP mod: -15%; gsp ag: -19%

Results for O=C(CSc1nnnn1-c1ccccc1)N1CCCc2ccccc21 ?
TRPML1 ag: -0.5; gsp antag: -2%; Menin MLL FP FL: 2.8; TRPML1 inh: 18; ClpP mod: -2.1%; gsp ag: 15%

Results for CC(=O)N1CCOCCOCCOCC1 ?
TRPML1 ag: -0.3; gsp antag: 6%; Menin MLL FP FL: -0.2; TRPML1 inh: 10; gsp ag: -5%[15.4 µM]

What do the screens show for `COc1cc(C2C(C(=O)Nc3ccccc3C)=C(C)Nc3ncnn32)ccc1OCC(N)=O` (centres undefined)?
TRPML1 ag: 1.6; TRPML1 inh: -6; ClpP mod: -9.1%

How did O=C(CSc1nc(=O)n(CCN2CCOCC2)c2c1CCC2)Nc1ccc(OC(F)(F)F)cc1 do in these assays?
TRPML1 ag: 0.4; gsp antag: -7%; TRPML1 inh: -13; gsp ag: 4%[15.4 µM]

How did CCOC(=O)C1=C(c2ccccc2)N=C2SCC(=O)N2C1c1ccc2c(c1)OCO2 (centres undefined) do in these assays?
TRPML1 ag: -0.7; gsp antag: 5%; Menin MLL FP FL: 10; TRPML1 inh: 15; ClpP mod: -1.1%; gsp ag: -1%

How did O=C(CCN1C(=O)c2ccccc2C1=O)NC(=S)Nc1cccc(Cl)c1 do in these assays?
TRPML1 ag: 4.0; gsp antag: -11%; Menin MLL FP FL: 1.4; TRPML1 inh: 4; ClpP mod: -6.9%; gsp ag: 0%

2 records picked at random from those above:
What do the screens show for `Cc1ccc(CNC(=O)c2cc3c(=O)n(C)c4ccccc4c3n2C)o1`?
TRPML1 ag: 3.9; gsp antag: 11%; Menin MLL FP FL: -0.9; TRPML1 inh: 1; ClpP mod: -15%; gsp ag: -19%

How did O=C(CSc1nc(=O)n(CCN2CCOCC2)c2c1CCC2)Nc1ccc(OC(F)(F)F)cc1 do in these assays?
TRPML1 ag: 0.4; gsp antag: -7%; TRPML1 inh: -13; gsp ag: 4%[15.4 µM]

Going on with the list:
Results for C[C@@H](C(=O)Nc1ccccc1N1CCOCC1)N1C(=O)C2CC=CCC2C1=O (some centres undefined) ?
TRPML1 ag: -0.7; gsp antag: 6%; Menin MLL FP FL: -1.0; TRPML1 inh: 12; ClpP mod: -1.5%; gsp ag: 6%

Results for COc1ccc(NC(=S)N(CCCN2CCOCC2)C(C)c2cc3ccccc3o2)cc1 (centres undefined) ?
TRPML1 ag: -0.7; gsp antag: -19%; Menin MLL FP FL: 0.5; TRPML1 inh: -3; ClpP mod: 0.3%; gsp ag: 2%

What do the screens show for `COc1ccc(NC(=O)c2oc3ccccc3c2NC(=O)COc2ccc(F)cc2)c(OC)c1`?
TRPML1 ag: -0.7; TRPML1 inh: 8; ClpP mod: 1.1%

What do the screens show for `CCOc1ccc(CNC(=O)C2Cc3cc(S(=O)(=O)N4CCCCCC4)ccc3N2C(C)=O)cc1` (centres undefined)?
TRPML1 ag: 0.2; TRPML1 inh: 5; ClpP mod: -1.0%

Results for O=C(O)c1ccc(Nc2nc(-c3ccccc3)c3cc(Br)ccc3n2)cc1 ?
TRPML1 ag: 2.7; TRPML1 inh: 17; ClpP mod: -1.6%

How did C=CCn1c(-c2csc3ccccc23)n[nH]c1=S do in these assays?
TRPML1 ag: 2.3; gsp antag: 4%; Menin MLL FP FL: 0.1; TRPML1 inh: 35; ClpP mod: -3.7%; gsp ag: 2%

How did OC1(CNCc2ccccc2)C2CC3CC(C2)CC1C3 (centres undefined) do in these assays?
TRPML1 ag: -0.4; gsp antag: 4%; Menin MLL FP FL: -4.7; TRPML1 inh: 1; ClpP mod: -0.2%; gsp ag: 14%[15.4 µM]

Results for CCC(C)N1CCN(S(=O)(=O)c2ccc3ccccc3c2)CC1 (centres undefined) ?
TRPML1 ag: -0.7; gsp antag: 11%; Menin MLL FP FL: -5.6; TRPML1 inh: -2; ClpP mod: 0.8%; gsp ag: inconclusive

Results for O=S(=O)(c1ccc2[nH]c3c(c2c1)CCCC3)N1CCN(c2cccc(C(F)(F)F)c2)CC1 ?
TRPML1 ag: 1.7; TRPML1 inh: -13; ClpP mod: inconclusive

Results for Cc1ccc(CCCOC(=O)CN2CCCCC2)cc1 ?
TRPML1 ag: 0.1; gsp antag: -13%; Menin MLL FP FL: 7.9; TRPML1 inh: 4; gsp ag: 18%[15.4 µM]

What do the screens show for `Cc1nn(Cc2ccc(F)cc2)c(C)c1NC(=O)c1cc(-c2ccc3c(c2)OCO3)on1`?
TRPML1 ag: 1.8; gsp antag: -34%; Menin MLL FP FL: 11; TRPML1 inh: 8; ClpP mod: -16%; gsp ag: 1%

What do the screens show for `CC(C)Cc1nn2c(=O)cc(COC(=O)c3ccccc3NC(=O)c3cccs3)nc2s1`?
TRPML1 ag: 2.4; TRPML1 inh: -12; ClpP mod: -18%

Screening results as filed in PubChem BioAssay.
